UCH37 DUB inh = blocks the human deubiquitinase UCH37; Q9Y5K5; purified proteasome/UCH37, Ub-AMC cleavage fluorescence; inhibition, % (no concentration beside the values); 330,000 tested, 0.33% active; AID 588478;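 active means mean of two replicates above 20%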;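 further: 0% = compound-free wells with enzyme and 100% = wells lacking proteasome; stock transfer was 100 nL into about 20 µL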
Target sequence (Q9Y5K5 whole entry, looked up): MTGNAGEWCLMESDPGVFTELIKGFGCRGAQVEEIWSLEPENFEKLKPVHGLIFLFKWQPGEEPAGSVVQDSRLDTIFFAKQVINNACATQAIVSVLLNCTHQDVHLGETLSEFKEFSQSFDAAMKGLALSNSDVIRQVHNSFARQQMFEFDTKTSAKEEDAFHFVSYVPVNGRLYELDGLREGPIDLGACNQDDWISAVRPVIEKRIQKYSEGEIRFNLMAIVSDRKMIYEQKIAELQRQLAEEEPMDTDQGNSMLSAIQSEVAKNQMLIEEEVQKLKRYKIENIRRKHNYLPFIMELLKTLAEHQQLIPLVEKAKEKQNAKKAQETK
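Schedule: 30 min plus 25 min, room temperature / Material: human UCH37 within purified proteasomes / Technique: AMC fluorescence intensity at 355/460 nm / Buffer or medium: pH 7.4 Tris-HCl (50 mM) with ovalbumin, ATP-MgCl2, DTT / Controls: wells without proteasome as full block, compound-free enzyme plus substrate as uninhibited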
HNF4A DNA FP = change in binding of human HNF4 alpha to DNA. HNF4a-FITC DNA binding, fluorescence polarization, 1 h. activity change, % at 10 µM. 360,000 tested, 0.3% active. AID 1224865; in the data active means activity change above about 30%, passing the limit was not always enough;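 further: controls were the assay level and a saturating level of protein; the project sought stronger binding though the title names inhibitors; some compounds called inactive have numbers as strong as hits; positive values seem to mean higher polarization but the record does not say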
Vif TR-FRET = HIV-1 Vif–A3G interaction blockers – biochemical, TR-FRET, GST-Vif 1-94, biotin-A3G peptide, dose response retest, primary screen (AID 1117319). 260,000 tested, 0.57% active. inhibition, %, or IC50 in µM where a hit was titrated. TR-FRET GST-Vif / biotin-A3G peptide binding; higher % means a stronger effect; test concentration not given here; strong numbers were not always called active;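 active means above the screen mean plus three standard deviations and confirmed in dose response; inconclusive means results disagree or hit not tested in dose response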;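 further: Vif residues 1-94 fused to GST binding biotinylated APOBEC3G peptide 110-148; 0% = full assay without inhibitor and 100% = GST in place of GST-Vif; retest series ran down from 100 µM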
Ecoli growth = inhibitors of Escherichia coli growth; OD600, 23 h; active compounds read low; OD600 absorbance (test concentration not listed); 330,000 tested, 0.21% active; AID 1053175;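 active means OD600 absorbance below the run mean of sample wells minus 3.6 SD, in any replicate, cut at about 0.56 in these data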;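 further: stock transfer was 300 nL into about 60 µL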
AF4-AF9 inh = blocks AF4 peptide binding to human AF9 | P42568 | AlphaScreen, biotin-AF4 peptide binding to FLAG-AF9 | inhibition, % at 10 µM | 350,000 tested, 0.47% active | AID 651704;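 active means every replicate reaching a set inhibition limit, whatever the replicate mean, cut at about 25% in these data; inconclusive means mean inhibition reaches that limit but some replicates miss it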;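 further: 0% = plate neutral control median and 100% = total signal loss; the record names both 10 and 1 µM as test concentration; the first replicate is given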
Target sequence (P42568 whole entry, looked up): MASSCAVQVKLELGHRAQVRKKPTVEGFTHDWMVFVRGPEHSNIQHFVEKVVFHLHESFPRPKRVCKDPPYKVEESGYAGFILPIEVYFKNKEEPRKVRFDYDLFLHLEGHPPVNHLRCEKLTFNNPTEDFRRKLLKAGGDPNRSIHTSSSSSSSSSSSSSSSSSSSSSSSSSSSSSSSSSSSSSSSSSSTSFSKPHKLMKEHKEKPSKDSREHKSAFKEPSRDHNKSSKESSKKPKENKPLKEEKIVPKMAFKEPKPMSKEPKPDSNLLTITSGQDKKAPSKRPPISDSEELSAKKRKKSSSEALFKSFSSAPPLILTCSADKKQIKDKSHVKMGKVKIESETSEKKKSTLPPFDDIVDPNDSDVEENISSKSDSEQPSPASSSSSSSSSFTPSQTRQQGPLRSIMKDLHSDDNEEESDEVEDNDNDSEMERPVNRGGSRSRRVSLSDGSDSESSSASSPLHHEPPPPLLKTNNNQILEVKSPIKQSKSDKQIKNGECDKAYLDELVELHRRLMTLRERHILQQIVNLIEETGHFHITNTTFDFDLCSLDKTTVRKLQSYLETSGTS
FGF22 binding = binders of recombinant human FGF22 by thermal shift; calls only at 9.99 µM; AID 651658; 340,000 tested, 1.5% active; SYPRO orange fluorescence; percent of sucrose octasulfate shift, DMSO zero; Q9HCT0;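 active means melting point raised past a set limit in the mean and every replicate; inconclusive means no clear call; three in four hits are not shown here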
Target sequence (Q9HCT0 whole entry, looked up): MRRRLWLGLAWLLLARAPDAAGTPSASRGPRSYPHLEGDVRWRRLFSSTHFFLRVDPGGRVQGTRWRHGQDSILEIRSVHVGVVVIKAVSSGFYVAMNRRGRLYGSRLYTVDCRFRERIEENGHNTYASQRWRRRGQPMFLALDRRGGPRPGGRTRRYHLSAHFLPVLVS
RanGTP-Imp inh = inhibitors of RanGTP-importin-beta interaction, primary screen, biochemical, FRET, CFP-Ran, YFP-importin-beta, homogeneous | cell-free CFP-Ran/YFP-importin-beta FRET ratio | inhibition, % (no concentration beside the values) | 300,000 tested, 1.1% active;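 active means most replicates above 15%; inconclusive means exactly half above 15%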;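 further: 0% = DMSO wells and 100% = Ran loaded with GDP instead of GTP; wells of about 40 µL received 100 nL stock; the first replicate is given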
* = called active by the depositor; i = inactive; ? = inconclusive; . = not tested or not shown.

SMILES	UCH37 DUB inh	HNF4A DNA FP	Vif TR-FRET	Ecoli growth	AF4-AF9 inh	FGF22 binding	RanGTP-Imp inh
O=C(Nc1ccc(F)cc1)N1CCOCC1	-0.7	-2.6	2%	0.72	.	.	0.3
O=C(CN1C2CCCC1CC(NC(=O)c1ccco1)C2)Nc1ccccc1 (stereo not given)	1.7	3.5	2%	0.73	.	.	-1.3
CCOc1ccc(-n2c(SC(C)C)nc3c(c2=O)SCC3)cc1	4.1	2.8	-1%	0.69	.	.	-3.0
COc1ccc(Cn2cc(F)c(=O)n(C)c2=O)cc1[N+](=O)[O-]	4.6	4.6	-4%	0.68	-8.6	i	4.1
CSc1cccc(NC(=O)CCCOc2ccccc2)c1	4.1	3.6	.	0.64	.	.	-1.1
CC(C)CC(NS(=O)(=O)c1cc(C(=O)O)ccc1Cl)C(=O)O (stereo not given)	1.0	-2.4	?	0.74	-1.3	.	-1.6
Cc1ccc(S(=O)(=O)NC(C)(C)CSc2nncn2C)cc1	2.3	4.6	-1%	0.62	-14	i	5.9
O=C1N[C@@H](Cc2c[nH]c3ccccc23)C(=O)N[C@H]1Cc1ccccc1	.	2.2	1%	.	-0.5	i	.
COc1ccc(C(=O)NCc2c(C)oc(C)c2C(=O)O)cc1	0.0	-2.4	4%	0.66	1.2	i	4.8
CCOc1ccc(C(C(=O)NC2CCCC2)N(CCOC)C(=O)CNC(=O)c2ccco2)cc1 (stereo not given)	-0.7	1.6	.	0.71	2.8	i	-0.7
COc1ccc(CNC2CC(=O)N(C)C2=O)cc1 (stereo not given)	1.8	9.1	-3%	0.7	.	.	?
CCC/C(=N/NC(=O)c1ccccc1Cl)c1ccccc1	.	1.0	20%	.	0.6	i	-0.6
O=C(Nc1ccccc1Cl)c1ccc2nccnc2c1	3.3	5.6	.	0.64	-1.8	i	0.9
COc1cccc(/C=C2\N=C(SC)SC2=O)c1OC	-0.7	0.3	8%	0.67	.	.	-2.8
CCN1CCN(c2ccc(S(=O)(=O)N3CCCCC3)cc2NC(=O)c2cccc(OC(F)F)c2)CC1	3.3	-3.5	-4%	0.73	-4.3	i	-1.8
CN1C(=O)c2cccc(NC(=O)CCc3ccccc3)c2C1=O	-27	0.6	-3%	0.71	-8.7	i	8.1
Cc1cc(=O)n(C)c(=O)n1CCCNc1ccccc1	-1.2	-0.4	15%	0.68	2.5	i	-1.1
COc1cc(C2C(C#N)=C(N)OC3=C2C(=O)CC(C)(C)C3)ccc1OCCN1CCOCC1 (stereo not given)	3.6	-1.9	7%	0.66	-1.8	i	0.8
Cc1ccc(NC(=O)C2(C)CCN2Cc2ccc(OC(C)C)cc2)cc1 (stereo not given)	.	1.3	.	.	1.2	i	.
Cc1sc2ncnc(SCC(=O)Nc3ncccc3O)c2c1C	1.9	2.1	21%	0.7	2.9	i	.
O=C(NCc1ccccn1)c1ccc(OC2CCN(Cc3ccc(CO)o3)CC2)cc1	-0.6	0.6	.	0.66	0.0	i	-0.3
CC1(C(=O)Nc2ccc3c(c2)OCCO3)CCC(=O)N1C1CCN(Cc2ccccc2)CC1 (stereo not given)	.	1.4	.	.	-0.6	i	.
CCCN(C(=O)c1cccc(S(=O)(=O)N2CCCc3ccccc32)c1)C1CCS(=O)(=O)C1 (stereo not given)	2.0	-0.9	0%	0.66	-9.0	i	.
CCN(c1ccccc1)S(=O)(=O)c1ccc(Oc2ccccc2)c(N)c1	-1.4	-1.4	2%	0.64	3.9	i	.
COc1ccccc1N1CCN(C(=O)c2cc(-c3ccccc3O)on2)CC1	0.6	-2.7	.	0.71	0.8	i	5.5
CCc1ccc(CN(C)Cc2nc(Cc3ccccc3)no2)nc1	0.6	1.6	2%	0.68	1.2	i	5.3
Brc1ccc2c(c1)OCCOCCOCCOCCOCCOCCO2	4.7	2.4	25%	0.66	6.2	i	-2.2
CCOC(=O)c1[nH]c(COC(=O)CCCOc2ccccc2)c(C(=O)OCC)c1C	1.9	.	.	0.74	.	.	2.1
O=C(C/C=N/OCc1ccc(Cl)cc1)c1cnc(-c2ccccc2)s1	.	0.8	5%	.	.	.	0.9
O=C(/C=C/c1c[nH]c2ccccc12)c1cccc2ccccc12	-7.3	12	.	0.71	5.0	.	17*
O=C(Nc1nc2ccc(Cl)cc2s1)c1ccco1	-16	2.0	-9%	0.72	.	.	-3.3
Cc1ccc(NC(=O)C2CC(=O)n3c(nc4ccccc43)N2)cc1 (stereo not given)	1.5	0.1	2%	0.66	5.3	i	4.6
CCn1nnnc1SCC(=O)NC1CCCC1	-0.6	2.3	2%	0.69	.	.	0.7
CN(CCC#N)C(=S)Nc1ccc(S(=O)(=O)N2CCOCC2)cc1	2.6	-4.2	5%	0.68	-1.5	i	-5.6
CCN(CC)c1ccc(N2C(=O)/C(=C/c3cccs3)SC2=S)cc1	5.9	-0.8	0%	0.73	.	.	-3.3
N=c1c(S(=O)(=O)c2ccc(Br)cc2)cc2c(=O)n3ccccc3nc2n1CCN1CCOCC1	-165	1.4	.	0.66	.	i	.
CC(=O)C1=C(O)C(=O)N(CCc2c[nH]c3ccccc23)C1c1ccc(C)cc1 (stereo not given)	9.1	-1.5	.	0.74	1.0	.	-0.9
Cc1c(/C=N/N2C(=O)C3C4C=CC(C4)C3C2=O)c2ccccc2n1C (stereo not given)	.	-2.2	5%	.	.	.	2.7
O=C(NC1CCCCC1)N(CCN1CCCC1)Cc1cc2cc3c(cc2[nH]c1=O)OCCO3	-30	4.0	10%	0.72	.	.	-20
Cc1cccc(NC(=O)c2ncn3c2C(=O)N[C@H](C)C3)c1	.	2.8	.	.	-3.5	i	.

2 successive entries already listed, quoted:
SMILES	UCH37 DUB inh	HNF4A DNA FP	Vif TR-FRET	Ecoli growth	AF4-AF9 inh	FGF22 binding	RanGTP-Imp inh
O=C(NC1CCCCC1)N(CCN1CCCC1)Cc1cc2cc3c(cc2[nH]c1=O)OCCO3	-30	4.0	10%	0.72	.	.	-20
Cc1cccc(NC(=O)c2ncn3c2C(=O)N[C@H](C)C3)c1	.	2.8	.	.	-3.5	i	.

(more compounds)
SMILES	UCH37 DUB inh	HNF4A DNA FP	Vif TR-FRET	Ecoli growth	AF4-AF9 inh	FGF22 binding	RanGTP-Imp inh
O=C(NC1CCCC1)C1CC(O)CN1C(=O)Nc1ccccc1 (stereo not given)	3.9	-1.2	.	0.72	-3.6	i	2.9
CSc1nc2c(c(=O)[nH]1)C(c1cccc(Cl)c1Cl)CC(=O)N2 (stereo not given)	.	2.4	2%	.	0.2	i	6.0
O=C(CN1C(=O)c2ccccc2C1=O)NC1CCCCCC1	5.6	1.7	.	0.69	1.5	i	-0.9
COCc1cc(C)nc(OCC(=O)N/N=C/c2ccc(C)cc2)c1C#N	.	-2.9	-9%	.	-0.3	i	0.4
CCOC(=O)c1c(C2CC2)csc1NC(=O)COC(=O)CCS(=O)(=O)c1ccc(C)cc1	-10	-1.0	-5%	0.63	0.2	i	5.6
O=C(COC(=O)CNS(=O)(=O)c1cccc(Br)c1)NC(=O)Nc1ccc2c(c1)OCCO2	4.5	1.9	-7%	0.73	-6.6	i	.
Cc1ccc(NC(=O)CSc2sc3c(O)cc(=O)[nH]c3c2C#N)cc1C	8.3	2.3	.	0.71	2.5	i	1.4
Cc1ccc(C)c(OCC(=O)OCc2csc(CC(=O)Nc3ccccc3C)n2)c1	.	3.9	3%	.	-1.9	i	.
O=C(c1cc2cc(Br)ccc2oc1=O)N1CCCC1	-6.0	-3.8	5%	0.69	.	.	3.6
CCCCN(CC)CCCNC(=O)c1cc2cc3ccc(C)cc3nc2o1	i	-3.1	.	0.68	-0.8	i	-0.7
Cc1cc(=O)n2nc(N3CCCC(C(=O)NCCc4ccc(Cl)cc4)C3)sc2n1 (stereo not given)	2.6	8.0	.	0.71	0.7	i	-2.6
COCCNC(=O)c1cc(-c2cccs2)on1	6.8	-0.6	3%	0.76	0.0	i	0.6
COc1cc(CN2CCC(C(=O)NC3CCCC3)CC2)cc(OC)c1O	1.9	4.2	24%	0.68	.	.	6.9
Cc1noc(/C=C/c2cccnc2)c1[N+](=O)[O-]	4.7	-2.4	.	0.67	1.6	i	2.7
OC(CNCCC1C=Nc2ccccc21)Cn1c2ccc(Cl)cc2c2cc(Cl)ccc21 (stereo not given)	0.7	3.3	23%	0.054*	.	.	-0.7
CCCN1/C(=C(\C#N)C2=NS(=O)(=O)c3ccccc32)N(C)c2ccccc21	8.6	-7.0	-6%	0.69	-3.1	i	.
CCOc1ccc(NC(=S)NCc2ccco2)cc1	4.3	-2.3	-7%	0.63	2.6	.	0.7
O=C(O)CCCN1C(=O)C2C3c4ccccc4C(c4ccccc43)[C@@H]2C1=O (stereo not given in full)	0.2	5.0	0%	0.68	-1.0	i	7.3
CC(C)[C@H](NS(=O)(=O)c1ccccc1)C(=O)OCC(=O)Nc1cccc(S(N)(=O)=O)c1	0.5	4.1	.	0.68	-2.1	i	.
Cc1ccsc1C(=O)N(CC(C)C)c1c(N)n(Cc2ccccc2)c(=O)[nH]c1=O	0.3	-0.5	-9%	0.67	-3.2	i	-1.9

3 compounds from above, ordered by the value under RanGTP-Imp inh, smallest number first:
mol,UCH37 DUB inh,HNF4A DNA FP,Vif TR-FRET,Ecoli growth,AF4-AF9 inh,FGF22 binding,RanGTP-Imp inh
OC(CNCCC1C=Nc2ccccc21)Cn1c2ccc(Cl)cc2c2cc(Cl)ccc21 (stereo not given),0.7,3.3,23%,0.054*,.,.,-0.7
COCc1cc(C)nc(OCC(=O)N/N=C/c2ccc(C)cc2)c1C#N,.,-2.9,-9%,.,-0.3,i,0.4
COc1cc(CN2CCC(C(=O)NC3CCCC3)CC2)cc(OC)c1O,1.9,4.2,24%,0.68,.,.,6.9

Next part
SMILES	UCH37 DUB inh	HNF4A DNA FP	Vif TR-FRET	Ecoli growth	AF4-AF9 inh	FGF22 binding	RanGTP-Imp inh
CCOc1ccc(N2CC(C(=O)Nc3ccccc3N3CCOCC3)CC2=O)cc1 (stereo not given)	-0.1	-3.1	?	0.71	.	.	1.7
COc1ccc(/C=N/NC(=O)c2ccc[nH]2)cc1	.	1.5	.	.	2.4	i	1.7
COc1ccc(/C(C)=N/N=C(N)N)c(OC)c1	.	3.2	0%	.	2.5	i	3.2
CN(CC1CCOCC1)C(=O)CC1C(=O)NCCN1Cc1cccc(Oc2ccccc2)c1 (stereo not given)	0.5	9.1	11%	0.69	-0.9	.	6.0
Cc1cc(C(=O)COC(=O)c2ccc[nH]c2=O)c(C)n1-c1ccc(Br)cc1	-1.4	-0.7	21%	0.7	.	.	1.4
NCC(c1ccccc1)c1c[nH]c2ccccc12 (stereo not given)	-0.4	4.3	.	0.67	9.6	i	-5.6
COC(=O)C1=C(C)N(c2cccc(C(C)=O)c2)C(=O)C1	2.5	5.1	8%	0.69	.	.	-4.2
CCC1(C)CC2(CCCN(CCC(O)(c3ccccc3)c3ccccc3)C2)CCO1 (stereo not given)	5.4	-0.8	?	0.67	2.0	i	-3.3
Clc1ccccc1OCc1nnc(-c2ccccc2)o1	3.4	-3.7	7%	0.69	-2.2	i	0.2
CCOC(=O)C(C(=O)Nc1cccc(C)c1)C1CCCCC1 (stereo not given)	0.8	-0.2	2%	0.71	.	.	2.7
CCCCC(=O)N(C)c1c(CC)nc2c(OCC(=O)C(C)(C)C)cccn12	.	2.4	.	.	3.2	i	.
COc1ccc2c(c1)c1ncn(CC3CCCO3)c(=O)c1n2C (stereo not given)	-493	-1.4	2%	0.69	-1.1	i	-0.9
COC(=O)[C@]1(C)N[C@H](CN(C)S(=O)(=O)c2ccc(OC(F)(F)F)cc2)[C@@H]2C(=O)N(C)C(=O)[C@@H]21	.	-0.2	.	.	-0.5	i	.
COc1ccc(C(NC(=O)C2CCN(Cc3ccc(Oc4ccccc4)cc3)CC2)c2ccccc2C)cn1 (stereo not given)	.	-0.2	.	.	4.9	i	.
CS(=O)(=O)c1cccc(NC(=O)c2ccc(Cl)c(Cl)c2)c1	1.2	1.4	4%	0.68	-0.7	i	1.4

Not all compounds are listed; count on the stated rates, not on these rows.
